# TRPML1 inh: human mucolipin-1 channel inhibition | 0.02% of 390,000 active | TRPML1-inducible cells, Ca2+ dye fluorescence, FDSS; hits give low values; inhibition of EC80 agonist-evoked calcium signal | activity change, negative = inhibition, % (no concentration beside the values) | AID 624415 | Q9GZU1; in the data active means activity change below about -50%; inconclusive means about -30% to -50%; inactive means above about -30%;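 also: stimulus is agonist 54-4 at its EC80 concentration; % is scaled to controls: 0 for no effect and ±100 for the full control effect; compound concentration not given in the record; the text of the record puts the active cut at -80%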
# Target sequence (Q9GZU1 whole entry, looked up): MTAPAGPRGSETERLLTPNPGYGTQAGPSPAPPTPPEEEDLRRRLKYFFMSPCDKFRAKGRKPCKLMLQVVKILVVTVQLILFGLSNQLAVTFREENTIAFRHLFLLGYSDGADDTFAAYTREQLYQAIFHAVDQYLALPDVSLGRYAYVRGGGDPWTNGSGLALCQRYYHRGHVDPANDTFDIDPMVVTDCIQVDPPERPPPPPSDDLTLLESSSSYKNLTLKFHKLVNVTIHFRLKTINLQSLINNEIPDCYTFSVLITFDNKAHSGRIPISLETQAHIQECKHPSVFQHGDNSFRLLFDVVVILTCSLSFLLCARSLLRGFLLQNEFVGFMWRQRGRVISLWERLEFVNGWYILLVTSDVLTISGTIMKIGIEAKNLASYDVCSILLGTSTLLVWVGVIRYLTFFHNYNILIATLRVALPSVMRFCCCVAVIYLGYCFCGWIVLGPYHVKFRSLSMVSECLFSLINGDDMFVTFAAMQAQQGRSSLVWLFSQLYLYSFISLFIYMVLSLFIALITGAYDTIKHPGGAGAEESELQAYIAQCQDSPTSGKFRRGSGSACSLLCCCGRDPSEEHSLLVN
#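 TRPML1-DL cells, Tet-induced overnight (~16 h, 37 °C) at 1,500 cells/well, were loaded with Ca8 no-wash dye plus quencher for 45-90 min at room temperature. Compounds were pinned during FDSS kinetic reading; agonist 54-4 at EC80 (4 uM final) then added.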
# ClpP mod: qHTS Assay for Activators of ClpP | purified B. subtilis ClpP, FRET peptide cleavage, 20 min | Potency, µM (top dose mostly 57.5 µM), inactives show at the top dose activity change, negative = active | 1.9% of 340,000 active | AID 651965, 2013; active = well fitted falling curve with a large enough effect; inconclusive = small, poorly fitted or top-dose-only effect; inactive = no such curve, though single readings can be large or run the other way; also: potency is read from the fitted curve at half-maximal effect; the source files actives as falling curves though it sought activators and does not explain the sign; nearly all actives have a fitted effect of over 65% in size; many hits overshoot -100%
# Target sequence (P80244 whole entry, looked up): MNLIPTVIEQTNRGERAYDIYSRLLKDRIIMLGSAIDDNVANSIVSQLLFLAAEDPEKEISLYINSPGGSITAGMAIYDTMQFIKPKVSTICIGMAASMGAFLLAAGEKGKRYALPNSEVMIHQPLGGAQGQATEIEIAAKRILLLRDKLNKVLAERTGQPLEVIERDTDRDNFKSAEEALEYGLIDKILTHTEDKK
#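 Buffer: 100 mM Tris/HCl pH8, 100 mM KCl, 0.05% low protease BSA, 2.5% glycerol, 0.01% Tween-20. ClpP 10 microg/mL final; 20 min RT; delta FRET normalized to ADEP and DMSO controls.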
# gsp ag: gsp mutant agonism; Potency, µM (highest dose often 76.9 µM), for inactives: top-dose activation (cAMP increase), hits mostly activators; 0.13% of 340,000 active; gsp mutant cells, cAMP HTRF, 30 min; control for the full effect not named in the record; active = well fitted activation curve with a large enough effect; inconclusive = small, poorly fitted or top-dose-only effect, or another doubt; inactive = no such curve, though single readings can be large or run the other way; cell line not stated here;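 also: phosphodiesterase inhibitor Ro 20-1724 added with compounds to block cAMP breakdown; potency is read from the fitted curve at half-maximal effect; nearly all actives have a fitted effect of over 60% in size; about a fifth of the inactives were tested at one dose only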
#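 Cells in DMEM/10% FBS with G418 were pretreated with compounds in DMSO plus […] (300 uM stock) for 30 min at 37C. cAMP was measured by HTRF (cAMP-d2 plus anti-cAMP antibody-K) after 30 min at room temperature.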
# Sfp inh: Sfp phosphopantetheinyl transferase inhibition | 3.5% of 310,000 active | Biochemical Sfp PPTase activity, qHTS | Potency, µM, for the others: max response, negative = inhibition, most hits filed as inhibitors | Q9F4F7; active = well fitted inhibition curve with a large enough effect; inconclusive = small, poorly fitted or top-dose-only effect, or another doubt; inactive = no such curve, though single readings can be large or run the other way;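 also: the enzyme is Sfp with the accession as filed and its product quenches rhodamine fluorescence; potency is read from the fitted curve at half-maximal effect; 0% = enzyme reaction without inhibitor and -100% = no enzyme wells; top concentration of the series not given in the record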
#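 Step 1, compound plus 15 nM Sfp-PPTase, 15 min, room temperature. Step 2, add rhodamine-CoA (5 uM) and BHQ-2-YbbR (12.5 uM). Step 3, read 525/598 nm fluorescence at 0 and 30 min.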
# gsp antagonist: antagonists of gsp mutant (McCune-Albright syndrome) | 0.4% of 340,000 active | gsp-mutant cells, cAMP HTRF, 30 min; control for the full effect not named in the record | Potency, µM (doses to about 76.9 µM), inactives show at the top dose activity change, negative = inhibition, usual class: inhibitors | AID 624288; active = falling curve of any shape with a large fitted effect; inconclusive = falling curve, mostly with a smaller effect; inactive = flat or rising curve; cell line not stated here;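 also: intracellular cAMP measured with PDE inhibitor Ro 20-1724 present during compound exposure; potency is read from the fitted curve at half-maximal effect; % is scaled to controls: 0 for no effect and ±100 for the full control effect; nearly all actives have a fitted effect of over 65% in size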
#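 HTRF cAMP measurement after 30 min RT detection following 30 min, 37C compound treatment alongside […] (added as 300 uM solution) in G418-selected cells seeded at 2000/well and grown 16–24 h.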
# Menin MLL FP FL: menin-MLL binding inhibition, fluorescein peptide. Fluorescence polarization, fluorescein-MLL peptide displacement from menin. FP activity change, % at 61.4 µM. 290,000 tested, under 10 active; inconclusive = falling polarisation curve, or a change in total fluorescence; inactive = total fluorescence flat and polarisation flat or rising; no compound was filed as active; the % refers to the polarisation; negative = inhibition;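 also: % of control where 0% means no effect; inhibitors lower the polarisation; unlabelled MLL peptide was the positive control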
# TRPV1 PAM: potentiators of human vanilloid receptor 1 (TRPV1); Q8NER1; TRPV1-expressing cells, Fluo-8 calcium influx, capsaicin EC20 potentiation; host cell line not named in the record; control for the full effect not named in the record; potentiation, % at 8.33 µM; 0.02% of 320,000 active; AID 540277; active means potentiation above 80%; inconclusive means 30% to 80%; inactive means below 30%; also: 0% is about no effect
#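 Cells expressing TRPV1 were dye-loaded with Fluo-8 and read kinetically: 10 s baseline, 3 min after compound (agonist portion), then 2 min after EC20 capsaicin (allosteric enhancer portion). Calcium-bound dye fluorescence at 480/520 nm.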
# Starred values were filed as active, the others as inactive; ? = inconclusive; nt = no result given; & = joins results of further samples; [ ] = remark or other dose.
SMILES,TRPML1 inh,ClpP mod,gsp ag,Sfp inh,gsp antagonist,Menin MLL FP FL,TRPV1 PAM
c1ccc(CN2CCCC3(CCCN(Cc4nc(COc5ccccc5)no4)C3)C2)cc1 (stereo not given),-18,0.0%,-25%,-10%,6%,4.8,-31
COc1ccc(Cl)cc1C(=O)NNC(=S)NC1CCCCC1,-23,nt,13%[15.4 µM],24%,6%,1.1,?
CCNc1nc(NC(C)C)nc(NS(=O)(=O)c2ccc(Cl)cc2)n1,-1,1.3%,-24%,23%,7%,0.9,4
Cc1coc(C)c1C(=O)CC1(O)C(=O)N(CCc2ccccc2)c2ccccc21 (stereo not given),13,-2.9%,-43%,?,2%,17,-9
O=C(CCC(=O)N1CCN(S(=O)(=O)c2ccc3ccccc3c2)CC1)Nc1cc(Cl)cc(Cl)c1,-5,-6.3%,0%,11%,-23%,1.2,-2
NC(=S)Nc1cnc2ccccc2c1,-16,1.6%,-7%,3%,8%,4.0,0
COc1ccc(CCNC(=O)c2cc(C(=O)c3cc(Cl)ccc3O)cn(CCc3ccc(OC)cc3)c2=O)cc1,13,-0.4%,-11%,2%,-9%,6.9,22
CCN(CC)S(=O)(=O)c1ccc2c(c1)c(=O)c(C(=O)NCCOC)cn2C,-11,-1.7%,?,14%,-3%,7.6,-19
O=S(=O)(c1ccc(Br)cc1)N1CCCc2ccccc21,64,?,-7%[15.4 µM],-19%,-19%,3.1,5
Cc1cc(OCCCn2ccnc2)ccc1[N+](=O)[O-],10,nt,-10%,?,-1%,-3.2,-2
C/C(=N\Nc1ccc(C)c(Cl)c1)c1cccnc1,-4,0.1%,7%,-5%,7%,0.0,6
c1ccc2c(c1)nnn2Cc1nnc2sc(-c3ccc4c(c3)OCCO4)nn12,2,32µM*,-7%,18µM*,-5%,2.7,-6
O=C(Cn1nnc(N2CCCC2)n1)N/N=C/c1ccc(Cl)cc1,-2,3.8%,1%[15.4 µM],3%,1%,3.2,-7
COc1cc(NC(=O)C2CC(c3ccccc3O)=NO2)cc(OC)c1OC (stereo not given),-5,-3.5%,-18%,nt,nt,nt,nt
c1ccc(CNc2nc(N3CCN(Cc4ccccc4)CC3)nc3ccccc23)cc1,13,nt,5%[15.4 µM],56µM*,-6%,2.4,0
Cc1ccc(NC(=O)C2CCC(CNC(=O)[C@@H]3Cc4ccccc4CN3)CC2)c(C)c1 (stereo not given in full),-2,-3.8%,60%,-8%,13%,nt,2
COCCn1c(COc2ccc(Cl)cc2)nnc1SCC(N)=O,-21,-0.8%,-47%[inhibitor],6%,4%,-3.5,4
COc1ccc(CNC(=O)CSc2ncnc3nc[nH]c23)cc1,3,0.4%,15%,5%,8%,0.3,23
Cc1cc(C(=O)NC(C)C2CCCO2)no1 (stereo not given),20,-1.4%,?,17%,4%,-1.1,-32
O=C(N/N=C(\c1ccccc1)c1cccnc1)c1cccc(F)c1,5,0.0%,-10%[15.4 µM],10%,?,3.4,-9
Cn1c(=O)c2cn(Cc3ccc(Cl)cc3)cc2n(C)c1=O,35,1.5%,-27%,12%,-8%,4.6,-5
COc1ccc2c(c1)c(=O)c(C(=O)O)c(-c1ccc3c(c1)OCO3)n2C,-2,-8.2%,15%[15.4 µM],-8%,2%,0.8,-2
Oc1ccc(Br)cc1-c1ccnn1-c1ccccc1,-11,-6.4%,-2%[15.4 µM],8%,2%,2.2,12
O=C(Nc1ccccc1C(=O)N1CCOCC1)c1ccncc1,-8,-14%,-14%,12%,8%,-0.1,-20
COc1ccccc1NC(=O)CNC(=O)c1ccc(F)cc1,15,-0.3%,-1%,-6%,14%,4.1,-1
CCC(C)[C@H](NC(=O)C1CC(=O)N(c2ccc3c(c2)OCCO3)C1)C(=O)N1CCCCC1 (stereo not given in full),1,1.1%,-39%[inhibitor],12%,0%,-0.1,1
COc1cc(C(=O)Oc2c(CN3CCOCC3)cc(Cl)c3cccnc23)cc(OC)c1OC,-8,-0.3%,?,6%,4%,-1.3,1
CN(CCCC(=O)Nc1ccc(OC(F)F)cc1)S(=O)(=O)c1ccc(F)cc1,0,nt,-8%[15.4 µM],-3%,-2%,0.8,2
CC(C)CNS(=O)(=O)c1ccc(CCC(=O)NCc2ccncc2)cc1,0,3.2%,6%,0%,8%,3.0,-4
COc1ccc(NC(=O)COC(=O)c2ccc3c(c2)OCCO3)cc1,-17,-1.5%,-73%[inhibitor],nt,nt,nt,nt
COC(=O)c1cc(OC)ccc1-c1ccc(OC)cc1,-2,?,?,13%,-9%,5.1,7
CCOC(=O)c1[nH]c(C)c(C(=O)OCC(=O)N(Cc2ccccc2)C(C)C)c1C,12,-1.2%,-3%,nt,-16%,nt,4
Cc1nc(NCCCN2CCOCC2)c2cnn(-c3ccccc3)c2n1,-7,nt,-42%[inhibitor],nt,9%,nt,nt
COc1ccc(NC(C(=O)Nc2cccc(C(C)=O)c2)c2ccccc2)cc1 (stereo not given),37,3.2%,-44%[inhibitor],-4%,-3%,4.2,6
Cc1ccc(CNC(=O)COC(=O)c2ccc(Br)o2)cc1,20,-2.3%,30%,nt,9%,nt,8
CCCCN(C)C(=O)CSc1nc(NCc2ccc(OC)cc2)c2ccccc2n1,4,-0.5%,14%,6%,-9%,0.9,-2
CCOc1cccc(-c2nn3c(-c4ccccn4)nnc3s2)c1,-13,-2.1%,4%,-2%,-7%,5.8,-9
Cc1ccc2[nH]c(C)c(CC(=O)O)c2c1,0,-9.1%,-39%[inhibitor],?,-8%,?,-10
CC(C)(C)NS(=O)(=O)c1ccc(C(=O)Nc2ccc3c(c2)OCO3)cc1,4,nt,13%,1%,-14%,3.0,25
CCN(CC)CCNC(=O)c1cn(CC)c2ccc(S(=O)(=O)N(C)C3CCCCC3)cc2c1=O,13&7,-4.8%&-5.5%,6%,4%,-2%,1.0,-21
O=C(Nc1ccc([N+](=O)[O-])cc1)N1CCCCCC1,21,0.3%,-24%,7%,8%,-1.1,-20
CCOC(=O)C1=C(N)N(c2ccc(N3CCCCC3)cc2)C(=O)C1,7,0.1%,-9%,-4%,-5%,-1.2,-9
COc1cccc(C2C3(C#N)C(N)=NC(OC)(OC)C23C#N)c1 (stereo not given),3,-0.2%,-63%[inhibitor],2%,11%,-0.7,10
Cc1cc(/C=C2\SC(=O)N(C)C2=O)c(C)n1-c1ccc(S(N)(=O)=O)cc1,8,-1.2%,-1%,-2%,-20%,0.1,5
CCOc1cc(C=O)ccc1OCC(N)=O,3,-3.2%,?,8%,1%,-0.5,7

# Some of these compounds in order of length of the SMILES, lowest first.
SMILES,TRPML1 inh,ClpP mod,gsp ag,Sfp inh,gsp antagonist,Menin MLL FP FL,TRPV1 PAM
CCOc1cc(C=O)ccc1OCC(N)=O,3,-3.2%,?,8%,1%,-0.5,7
COc1cccc(C2C3(C#N)C(N)=NC(OC)(OC)C23C#N)c1 (stereo not given),3,-0.2%,-63%[inhibitor],2%,11%,-0.7,10
CC(C)(C)NS(=O)(=O)c1ccc(C(=O)Nc2ccc3c(c2)OCO3)cc1,4,nt,13%,1%,-14%,3.0,25

# Remaining list, next part
SMILES,TRPML1 inh,ClpP mod,gsp ag,Sfp inh,gsp antagonist,Menin MLL FP FL,TRPV1 PAM
Cc1ccc(C)c(-n2c(SCC(N)=O)nnc2-c2ccccn2)c1,1,-0.1%,0%,6%,0%,-0.7,-2
COc1ccc(C(C)(C)C)cc1NC(=O)COC(=O)C1=NNC(=O)CC1,3,0.0%,3%,nt,8%,nt,-12
CC(=O)N1CCN(C(=O)c2ccc3c(c2)S(=O)(=O)c2ccccc2C3=O)CC1,-4,2.3%,-24%,16%,12%,3.9,-3
COc1ccccc1NC(=O)NC1CCCc2ccccc21 (stereo not given),-3,-0.8%,4%,13%,1%,2.0,-7
COc1ccc(C)cc1NC(=O)C1CCCN1S(=O)(=O)c1ccc2c(c1)CCC(=O)N2 (stereo not given),-7,-0.6%,29%,16%,1%,1.8,4
O=C(Cc1ccc(F)cc1)N/N=C/c1ccc2c(c1)OCO2,-2,nt,-22%,19%,10%,-0.7,16
OC(COc1ccc2c(c1)OCO2)CN1CCN(c2ccccc2)CC1 (stereo not given),-5,nt,0%,?,0%,0.1,1
O=C(OCC1CCNCC1)c1ccc2c(c1)OCO2,20,0.2%,0%[15.4 µM],19%,9%,0.7,8
CC(NCc1ccccc1OC1CCCC1)c1ccccc1 (stereo not given),19,nt,0%[15.4 µM],17%,1%,0.0,-19
CC1CC1C(=O)Nc1ccc(S(=O)(=O)N2CCCCC2)cc1 (stereo not given),-1,0.6%,-27%,nt,6%,nt,9
CCOC(=O)N1CCC(NC(=O)CS(=O)Cc2nc(-c3ccc(Cl)cc3)oc2C)CC1 (stereo not given),-5,-16%,21%,7%,7%,nt,12
CC(NC(=O)c1ccccc1)C(=O)OCn1nnc2ccccc2c1=O (stereo not given),14,-2.7%,-4%,nt,1%,nt,-6
COc1ccc(CNC(=O)CN(C(=O)CCC(=O)Nc2ccccn2)c2ccc(C)cc2)cc1,0,0.5%,-5%[15.4 µM],4%,13%,0.3,8
CC(C)C(=O)Nc1cccc(NC(=S)NC(=O)C(c2ccccc2)c2ccccc2)c1,2,-1.6%,3%,7%,3%,4.3,0
O=C1CCCC(=O)N1c1ccc(N2CCN(c3ccccc3)CC2)c([N+](=O)[O-])c1,-2,-0.6%,0%,-12%,23%,1.7,-2
COc1cccc(C2=NOC(C(=O)NCc3ccccc3)C2)c1 (stereo not given),-12,-18%,-36%[inhibitor],-9%,4%,4.9,0
Cc1ccsc1C(=O)OCC(=O)N1CCN(C(=O)c2ccco2)CC1,-7,nt,5%[15.4 µM],7%,-9%,-3.4,0
CCS(=O)(=O)c1ccc(C(=O)NC2CC2)c(Cl)c1Cl,-15,0.6%,9%,17%,7%,-1.4,3
c1ccc(CN2C3=NCCCN3c3ccccc32)cc1,0,-1.3%,?,?,11%,9.1,?
Cc1cccc(C2c3[nH]c4ccccc4c3CCN2C(=O)Cc2nc(-c3ccccc3)n[nH]2)n1 (stereo not given),2,nt,-2%[15.4 µM],16%,-11%,1.5,7
CC1=C(C(N)=O)C(c2ccccc2F)n2nc(CCCO)nc2N1 (stereo not given),1,-2.1%,-30%[15.4 µM],7%,10%,0.3,17
